Bioassay records: PubChem, National Center for Advancing Translational Sciences (NCATS)
D2 ag: Beta-Arrestin HTS for Positive Allosteric Modulators of the Human D2 Dopamine Receptor: Agonists | DiscoveRx PathHunter D2 beta-arrestin, luminescence, 90 min; 100% = 57 uM dopamine signal | activation, % (concentration not given with the values) | 0.084% of 360,000 active | AID 624465, 2012; in the data active = activation above about 40%; inconclusive = about 15% to 40%; inactive = below about 15%; note: compound concentration not given in the record; the text of the record calls up to 30% inactive
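Agonist mode: compounds alone added to overnight-plated D2 PathHunter cells for 90 min at 37 C, with 57 uM final dopamine (EC100) defining full response. Beta-arrestin recruitment detected by chemiluminescent reagent, read after 1 h at ambient temperature.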
Six1-Eya2 blk: qHTS Assay for Inhibitors of the Six1/Eya2 Interaction | Homeobox protein SIX1 (Homo sapiens) + Protein phosphatase EYA2 (Homo sapiens), … | AlphaScreen GST-Six1/His-Eya2 binding, biochemical; stronger effect = lower value; control for the full effect not named in the record | activity change, % (no concentration beside the values) | 0.56% of 360,000 active | AID 651725, 2012; in the data active = activity change below about -65%; inconclusive = about -30% to -65%; inactive = above about -30%; note: % is set by controls: 0 for no effect and ±100 for the full control effect; compound concentration not given in the record
Target sequence (O00167 whole entry, looked up): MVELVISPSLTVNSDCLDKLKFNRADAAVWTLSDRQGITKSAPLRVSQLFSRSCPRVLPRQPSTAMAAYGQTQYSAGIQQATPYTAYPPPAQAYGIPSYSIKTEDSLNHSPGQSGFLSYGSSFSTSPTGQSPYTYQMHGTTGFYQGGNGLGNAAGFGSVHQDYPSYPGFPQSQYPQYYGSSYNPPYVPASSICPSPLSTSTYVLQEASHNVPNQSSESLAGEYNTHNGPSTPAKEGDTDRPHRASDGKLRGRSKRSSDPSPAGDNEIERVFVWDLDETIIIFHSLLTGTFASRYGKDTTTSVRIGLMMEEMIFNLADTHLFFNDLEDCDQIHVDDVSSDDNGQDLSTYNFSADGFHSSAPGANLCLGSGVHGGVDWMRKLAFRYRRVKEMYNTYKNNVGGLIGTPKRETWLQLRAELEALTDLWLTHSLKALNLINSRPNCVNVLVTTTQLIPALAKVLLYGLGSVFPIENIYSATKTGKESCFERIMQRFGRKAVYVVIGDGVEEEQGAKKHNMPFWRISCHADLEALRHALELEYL
Target sequence (Q15475 whole entry, looked up): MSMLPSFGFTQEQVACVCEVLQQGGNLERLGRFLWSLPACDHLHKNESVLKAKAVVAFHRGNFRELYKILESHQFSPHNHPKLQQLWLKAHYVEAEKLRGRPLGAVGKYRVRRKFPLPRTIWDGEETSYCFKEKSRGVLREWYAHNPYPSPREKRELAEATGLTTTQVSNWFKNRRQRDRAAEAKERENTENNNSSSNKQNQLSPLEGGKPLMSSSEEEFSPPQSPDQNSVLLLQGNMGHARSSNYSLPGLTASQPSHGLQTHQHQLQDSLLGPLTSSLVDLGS
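AlphaScreen with GST-Six1 and His-Eya2 (5X mix: 250 nM and 500 nM), glutathione donor and nickel acceptor beads; buffer 50 mM Tris pH 8.0, 300 mM NaCl, 1 mM TCEP; 1 h at 37 C in the dark.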
D2 potentiator: Beta-Arrestin HTS for Positive Allosteric Modulators of the Human D2 Dopamine Receptor: Potentiators. D(2) dopamine receptor (Homo sapiens), P14416. 0.23% of 360,000 active. DiscoveRx D2 beta-arrestin cells, luminescence, 90 min; 100% = 57 uM dopamine signal. potentiation, % (no concentration beside the values); active = potentiation of 50% or more; inconclusive = 30% to 50%; inactive = 30% or less;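 note: compound concentration not given in the record; tested on top of an EC20 dose of dopamine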
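D2 cells co-treated with compound plus 50 nM dopamine (EC20) for 90 min at 37 deg C to detect potentiation. Beta-arrestin recruitment was read as enzyme-fragment luminescence after 1 h at ambient temperature. Full response was set by 57 uM dopamine.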
gsp agonist: qHTS for Agonist of gsp, the Etiologic Mutation Responsible for Fibrous Dysplasia/McCune-Albright Syndrome: qHTS; gsp mutant cells, cAMP HTRF, 30 min; control for the full effect not named in the record; Potency, µM (titrated, usually from 76.9 µM), for inactives: at the top dose activation (cAMP increase), most hits filed as activators; 0.13% of 340,000 active; AID 624287, 2012; active = well fitted activation curve with a large enough effect; inconclusive = small, poorly fitted or top-dose-only effect, or another doubt; inactive = no such curve, though single readings can be large or run the other way; cell line not stated here;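 note: phosphodiesterase inhibitor Ro 20-1724 added with compounds to block cAMP breakdown; potency is the fitted concentration of half-maximal effect; nearly all actives have a fitted effect of over 60% in size; about a fifth of the inactives were tested at one dose only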
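Cells stably selected in G418 were plated at 2000/well, grown 16-24 hr, then given compounds in DMSO with the PDE inhibitor […] (300 uM solution added) for 30 min at 37C; cAMP was read by HTRF.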
gsp antagonist: qHTS for Antagonists of gsp, the Etiologic Mutation Responsible for Fibrous Dysplasia/McCune-Albright Syndrome: qHTS; gsp-mutant cells, cAMP HTRF, 30 min; control for the full effect not named in the record; Potency, µM (titrated, usually from 76.9 µM), for inactives: top-dose activity change, negative = inhibition, hits mostly inhibitors; 0.4% of 340,000 active; AID 624288, 2012; active = falling curve of any shape with a large fitted effect; inconclusive = falling curve, mostly with a smaller effect; inactive = flat or rising curve; cell line not stated here;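 note: intracellular cAMP measured with PDE inhibitor Ro 20-1724 present during compound exposure; potency is the fitted concentration of half-maximal effect; % is set by controls: 0 for no effect and ±100 for the full control effect; nearly all actives have a fitted effect of over 65% in size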
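HTRF cAMP read-out (cAMP-d2 plus anti-cAMP antibody-K in lysis buffer, 30 min RT). Before lysis, cells are exposed to compounds with […] for 30 min at 37C in DPBS containing Ca/Mg, BSA and Tween 20.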
CtBP-E1A inh: qHTS Assay for Inhibitors of the CtBP/E1A Interaction; CtBP / adenovirus E1A interaction (AlphaScreen); AID 651724, 2012; activity change, % (no concentration beside the values); AlphaScreen GST-E1A/His-CtBP binding, 1536-well; stronger effect = lower value; control for the full effect not named in the record; 0.49% of 340,000 active; in the data active means activity change below about -65%; inconclusive means about -30% to -65%; inactive means above about -30%; note: % is set by controls: 0 for no effect and ±100 for the full control effect; compound concentration not given in the record
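In 5 uL wells, 23 nL compound meets equimolar GST-E1A and His-CtBP (5X stock 125 nM each) for 2 h, 37 °C. Beads (5X, 50 ug/mL) then 1 h, 37 °C, dark.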
Starred values were filed as active, the others as inactive; ? = inconclusive; · = not tested or not shown; [ ] = another dose, or the depositor's remark.

SMILES	D2 ag	Six1-Eya2 blk	D2 potentiator	gsp agonist	gsp antagonist	CtBP-E1A inh
CCc1ccc(NC(=O)CC2C(=O)N(c3ccc(OC)cc3)C(=O)N2CCOC)cc1 (centres undefined)	-3.0	2	0	-42%[inhibitor]	0%	9
Cc1cc(Br)ccc1OCC(=O)NNC(=O)c1ccc(NC(=O)C2CC2)cc1	2.9	6	-15	14%	14%	-1
O=C(NC1CCCCCCC1O)c1ccccc1 (centres undefined)	-3.0	1	-13	4%	9%	3
COC(=O)CSc1nc(N)c(C#N)c(CC(C)C)c1C#N	0.9	15	-5	3%	-9%	11
CCCCS(=O)(=O)N1C2=NC(C(=O)OC)=C(C(=O)OC)[C@@H]3N(C)c4ccc(OC)cc4[C@]23C[C@H]1C(=O)OC	-3.3	?	-4	·	-7%	?
Clc1ccc(C2[C@H]3CN(Cc4cccnc4)[C@H](c4ccccc4)C34CC2(c2ccccc2)C4)cn1 (some centres undefined)	-3.4	-11	-53	·	-17%	-1
COC(=O)C1C(=O)C2=C(CC1C)NC(C)=C(C(=O)OCc1ccc(OC)cc1)C2c1ccc(C)o1 (centres undefined)	-1.2	-3	1	20%	-15%	-9
CCN(CC(=O)NCc1ccc(Cl)cc1)C(=O)CCOc1ccccc1C	-2.0	6	-8	2%	-9%	4
COc1ccc(N2CCN(S(=O)(=O)c3ccc4c(c3)OCCO4)CC2)cc1	-6.1	-18	2	-15%[15.4 µM]	-5%	-5
CS(=O)(=O)c1cccc(S(=O)(=O)N2CCCCCC2)c1	-0.2	-6	-4	?	3%	-4
CN(C)S(=O)(=O)c1cccc(NC(=O)CN2C(=O)NC3(CCc4ccccc4C3)C2=O)c1 (centres undefined)	-1.7	-7	-5	3%[15.4 µM]	-8%	1
CC(=O)NNc1nc(-c2ccc(NC(C)=O)cc2)cs1	-5.0	2	-2	-4%	9%	-11
CCOC(=O)C1CCN(c2cc(=O)n(Cc3ccc(F)cc3)c(=O)[nH]2)CC1	-6.1	0	-5	-23%	5%	1
COC(=O)Nc1ccc(C)c(NC(=O)OC)c1	1.1	4	-2	-22%	1%	3
CC1Cc2ccccc2N1C(=O)COC(=O)c1ccccc1NCCO (centres undefined)	-6.8	2	-3	-6%[15.4 µM]	-6%	20
C[C@H](CCC(=O)NCC(=O)O)[C@H]1CC[C@H]2C3[C@H](O)C[C@@H]4C[C@H](O)CC[C@]4(C)[C@H]3C[C@H](O)[C@]12C (some centres undefined)	-5.2	3	8	·	8%	0
CCc1ccc(NC(=O)Cn2nnc(C(=O)NCc3ccc(OC)cc3)c2N)cc1	-0.6	3	-10	-14%	?	·
Clc1ccc(OCCOCCOc2cccc3cccnc23)c(Br)c1	-5.9	21	-14	-69%[inhibitor]	?	11
CC1=C(C#N)C(c2ccc(O)cc2)C2=C(CCCC2=O)N1 (centres undefined)	-3.9	0	2	4%	2%	-4
Cc1ccc(-c2csc3ncnc(SCC(=O)O)c23)cc1	-2.2	-1	-5	0%[15.4 µM]	-12%	5

The list goes on, overlapping the part above by two compounds.
SMILES	D2 ag	Six1-Eya2 blk	D2 potentiator	gsp agonist	gsp antagonist	CtBP-E1A inh
CC1=C(C#N)C(c2ccc(O)cc2)C2=C(CCCC2=O)N1 (centres undefined)	-3.9	0	2	4%	2%	-4
Cc1ccc(-c2csc3ncnc(SCC(=O)O)c23)cc1	-2.2	-1	-5	0%[15.4 µM]	-12%	5
COc1ccc(CNC(=O)CCC2N=C3c4ccccc4N=C(SCC(=O)NCC4CCCO4)N3C2=O)cc1 (centres undefined)	-8.2	20	-2	?	-14%	0
COc1ccc(C(C)=O)cc1COC(=O)CSC(C)C(=O)Nc1cc(C)on1 (centres undefined)	-2.8	3	4	-42%[inhibitor]	7%	-9
CC1=C(C)CC2C(=O)N(c3cccc4ccccc34)C(=O)C2C1 (centres undefined)	8.8	-3	-3	-12%	9%	0
CCOc1ccc(Br)cc1S(=O)(=O)Nc1ccccc1N1CCOCC1	-0.9	-2	2	-5%	-23%	-2
CCCC(C)NNC(=O)c1cc2ccccc2[nH]1 (centres undefined)	-1.1	3	-6	-29%	2%	2
CS(=O)(=O)N(CC(=O)Nc1c(F)cccc1F)c1cccc([N+](=O)[O-])c1	-2.0	7	28	-6%	0%	5
O=C1NC(c2ccccc2Br)=N/C1=C\c1ccco1	3.1	2	-2	27%	0%	·
CC(C)(C)n1nnnc1C(c1cccc(C#N)c1)N1CCCc2ccccc21 (centres undefined)	-3.1	-4	-9	-12%	-1%	-2
COCc1cc(=O)n2c(-c3ccccc3OC)n[nH]c2n1	-0.7	-1	-2	-12%	1%	-1
Cc1cccc(Nc2nc(-c3ccc(O)cc3O)cs2)n1	11	-9	-8	-13%	-5%	-13
Cc1ccc(C)c(N2C(=N)S/C(=C\c3ccc(-c4ccccc4C(=O)O)o3)C2=O)c1	-6.3	-72*	-21	?	-1%	?
CCn1c(SCC(=O)Nc2ccc3c(c2)OCCO3)nnc1-c1ccncc1	4.8	2	-4	-25%	1%	4
CCOC(=O)C1=C(C)N(CCCCCC(=O)O)C(=O)NC1c1cccc([N+](=O)[O-])c1 (centres undefined)	-0.3	1	-25	·	7%	2
C=CC[C@H](CC(=O)NCCO)C(=O)N[C@@H](COC(=O)[C@@H](CC=C)Cc1ccc(F)cc1)Cc1ccccc1	-9.4	-4	-1	6%	1%	2
Cc1cc(C)c(S(=O)(=O)N(C)CC(=O)NCc2ccccn2)c(C)c1	-4.5	4	-3	11%[15.4 µM]	7%	-1
CC1CC(=O)N(c2ccc(N(C)Cc3ccccc3)c([N+](=O)[O-])c2)C1=O (centres undefined)	-1.6	-6	-9	6%[15.4 µM]	-3%	-2
Cc1ccc(OCC(O)CN2C(=O)NC(C)(C)C2=O)cc1C (centres undefined)	-0.1	2	-6	-35%[inhibitor]	7%	5
CCOc1ccc2noc3c2c1C(=O)c1ccccc1-3	2.0	0	5	-3%	9%	3
O=C(NCc1ccncc1)c1cncc(Br)c1	-4.8	11	-5	-71%[inhibitor]	7%	·
COc1ccccc1C/C(N)=N/OC(=O)c1cccc([N+](=O)[O-])c1	?	?	70*	0%	3%	-22
Cc1cc(C)c(C)c(S(=O)(=O)NCc2ccc(C(=O)N3CCOCC3)cc2)c1C	-0.8	2	-12	-27%	-3%	7
CCOc1c(C)cc(S(=O)(=O)NCc2cccnc2)c(C)c1C	4.1	3	-3	14%[15.4 µM]	-5%	-4
N#CCOc1ccccc1CNC[C@H]1O[C@@H](n2cnc(C(N)=O)n2)[C@H](O)[C@@H]1O	-1.9	9	0	·	5%	7
CCOC(=O)C(NC(=O)c1ccc(OC)cc1)(Nc1cc(C)on1)C(F)(F)F (centres undefined)	0.0	-2	-6	-4%	1%	3
Cc1cc(C)n(-c2cc(N3CCN(S(=O)(=O)c4ccc(Br)cc4)CC3)ccc2[N+](=O)[O-])n1	1.0	-12	-5	12%	-7%	?
c1ccc(CSc2ncnc3c2oc2ccccc23)cc1	-2.4	58	-12	3%	5%	52
COc1c(C(=O)Nc2ccc3[nH]c(=O)[nH]c3c2)cc2ccccc2c1Br	13	-4	9	-9%[15.4 µM]	-1%	6
COc1ccc(-c2ccc(OC)cc2C(=O)O)cc1	-2.4	2	0	-26%	1%	1
O=C(Nc1ccncc1)c1ccc2c(c1)C(=O)N(C1CCCCC1)C2=O	-0.8	141	10	-38%[inhibitor]	22µM*	42
Clc1ccc(C=NN2CCCCCC2)cc1Cl	-2.6	-10	-15	-46%[inhibitor]	-7%	1
CCOC(=O)N1CCN(S(=O)(=O)c2ccc(F)c(C(=O)Nc3cc(C)cc(C)c3)c2)CC1	0.3	-6	-2	-47%	-1%	0
CCOc1cc(C=C2C(=O)c3ccccc3C2=O)ccc1OCC(=O)Nc1ccc(C)cc1	1.3	-15	-4	1%[15.4 µM]	-6%	-4
COc1ccccc1OCC(=O)N1CCCC(Nc2cccc(F)c2)C1 (centres undefined)	3.0	-1	13	-8%[15.4 µM]	5%	6
CN1CCN(c2ccccc2NC(=S)NC(=O)c2cc3ccccc3o2)CC1	0.8	-7	-23	-52%[inhibitor]	-2%	3
COc1ccc(NC(=O)C2CCN(C(=O)c3ccco3)CC2)c(OC)c1	-2.7	3	-1	9%[15.4 µM]	5%	-3
Cc1cc(OC(C)C(=O)NCC2CCC(C(=O)O)CC2)c2c(C)c(Cc3ccccc3)c(=O)oc2c1 (centres undefined)	-0.7	-11	-12	·	?	0
COc1ccc2occ(C(=O)c3coc4ccc(O)c(CN(C)C)c34)c2c1	6.2	-16	-3	-6%	9%	-13
CC(C)C[C@H](NC(=O)N1CCn2c1nc1ccccc12)C(=O)N[C@H](Cc1ccccc1)C(=O)O	-5.1	5	-15	·	9%	-9
CCOc1cc(C(=O)Nc2cc(=O)n(C)c(=O)n2C)cc(OCC)c1OCC	-2.9	12	-4	?	0%	4
COc1ccc(CCNC(=O)Cc2ccccc2)cc1OC	-4.9	8	1	-45%[inhibitor]	2%	-7
CCOC(=O)c1sc(=S)n(-c2cccc(OC)c2)c1N	-0.1	-16	2	?	6%	-12
CCOC(=O)c1[nH]c(C)c(C(=O)N(C)C)c1C	-3.0	4	-9	-37%[inhibitor]	0%	7
Cc1nc(C(F)(F)F)ccc1C(=O)N1CCCCCC1(C)C(=O)NCC(C)C (centres undefined)	-6.7	24	-14	·	·	1
CC(=O)Cc1nsc(Nc2ccccc2)n1	-0.6	2	-7	10%	7%	-1
O=CN1CCN(C(=O)Cc2ccc([N+](=O)[O-])cc2)CC1	-3.5	5	-8	?	11%	5
Cc1nnc(SCC(=O)Nc2cccc(C(F)(F)F)c2)n1Cc1ccco1	-1.3	-3	-24	-45%[inhibitor]	0%	-3
O=C(CCn1cnc(-c2ccccc2)c1-c1ccccc1)N/N=C/c1ccccc1O	-3.0	-19	0	-74%[inhibitor]	15%	-29
COc1ccc(CC(=O)Nc2ccccc2N2CCCCC2)cc1OC	0.7	-2	11	20%[15.4 µM]	-6%	5
